VCAM-1 imaging – suppression of endothelial VCAM-1 upregulation – imaging, high-content imaging, pooled HUVEC, TNFa stimulus (AID 456); HUVEC TNFa-induced VCAM-1 surface expression, immunofluorescence imaging; numbers were filed only for top-ranked candidate wells; one-dose inhibition, % at 5 µM; IC50 in µM for titrated hits; 10,000 tested, 0.2% active;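 active = top tenth filtered wells with inhibition above zero that passed visual or statistical confirmation; inactive = the rest, including hits rejected on review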;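 note: 0% = stimulated vehicle wells and 100% = unstimulated cells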
VCAM-1 up imaging – enhancers of VCAM-1 display on endothelial cells, imaging, high-content imaging, pooled HUVEC, TNFa stimulus (AID 457) | Pooled HUVEC, TNFa-induced VCAM-1 immunofluorescence imaging; hits of this screen are not shown here | calls only | 10,000 tested, 0.2% active;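 active = a top-ranked rise in VCAM-1 staining upheld on image or statistical review; inactive = the rest, including candidates rejected on review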;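 note: compounds tested at 5 µM in the well; cells exposed to compound for 24 hours before fixing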
FPR binder – ligands of human FPR, also counter-screen for FPRL1 ligands; FPR-expressing cells, fluorescent ligand binding, flow cytometry; inhibition, %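 (tested at 6.7 µM)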; 24,000 tested, 0.74% active;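 note: 0% = buffer wells and 100% = receptor blocker peptide wells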
Target sequence (P21462 whole entry, looked up): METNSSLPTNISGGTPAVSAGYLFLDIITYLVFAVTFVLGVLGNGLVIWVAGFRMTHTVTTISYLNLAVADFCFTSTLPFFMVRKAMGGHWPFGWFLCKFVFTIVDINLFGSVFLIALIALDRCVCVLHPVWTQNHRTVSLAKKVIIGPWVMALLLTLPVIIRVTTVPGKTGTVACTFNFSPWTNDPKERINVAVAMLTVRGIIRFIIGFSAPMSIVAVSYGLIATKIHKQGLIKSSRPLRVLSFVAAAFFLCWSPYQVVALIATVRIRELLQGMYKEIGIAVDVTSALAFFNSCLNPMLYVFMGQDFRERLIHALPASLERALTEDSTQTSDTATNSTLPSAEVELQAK
FPRL1 ligand – binds the human formylpeptide receptor-like-1 FPRL1; inhibition, %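 (tested at 6.7 µM)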; 24,000 tested, 0.3% active; FPRL1-expressing cells, fluorescent ligand binding inhibition, flow cytometry; P25090; AID 441;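 note: 0% = buffer alone and 100% = receptor blocker peptide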
Target sequence (P25090 whole entry, looked up): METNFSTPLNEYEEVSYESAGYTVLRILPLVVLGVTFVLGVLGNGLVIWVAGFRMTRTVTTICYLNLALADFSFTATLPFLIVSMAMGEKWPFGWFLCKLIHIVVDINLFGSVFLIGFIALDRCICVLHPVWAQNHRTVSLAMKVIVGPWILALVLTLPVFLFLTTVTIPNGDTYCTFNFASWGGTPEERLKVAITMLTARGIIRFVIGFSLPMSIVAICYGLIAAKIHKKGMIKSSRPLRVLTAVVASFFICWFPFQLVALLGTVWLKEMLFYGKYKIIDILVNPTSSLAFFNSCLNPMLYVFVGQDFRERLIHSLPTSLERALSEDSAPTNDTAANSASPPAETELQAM
VCAM-1 inhibition – suppression of endothelial VCAM-1 upregulation – cell-based, plate reader, pooled HUVEC, TNFa stimulus (AID 454). HUVEC TNFa-induced VCAM-1 surface immunofluorescence, plate reader; numbers were filed only for top-ranked candidate wells. inhibition, % at 5 µM. 10,000 tested, 0.2% active;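 active = compound among top-ranked inhibitors of TNF-induced VCAM-1 adhesion protein staining, with the hit upheld by image or statistical review; inactive = the rest, including hits rejected on review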;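 note: 0% = TNFa with vehicle and 100% = cells without TNFa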
* marks the source's active call; other numbers are inactive results; i = inactive; . = no result given.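 Rule for the calls, unless noted: active = mean above 30%; inconclusive = self-fluorescent; inactive = the rest.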 These rows are one share of the data. The share of hits here may be higher or lower than overall.

SMILES | VCAM-1 imaging | VCAM-1 up imaging | FPR binder | FPRL1 ligand | VCAM-1 inhibition
O=C(CCn1c(SCC(=O)NCc2ccco2)nc2ccccc2c1=O)NCCc1ccccc1 | . | . | 5 | 2 | .
Cc1c2cn[nH]c(=O)c2c(C)n1Cc1ccc(F)cc1 | . | . | -2 | -1 | .
COc1ccc(S(=O)(=O)Cc2ccc(C(=O)N3CCN(Cc4ccccc4)CC3)o2)cc1 | i | i | -1 | -1 | i
CC1(C)OC(=O)C(=CNc2ccccc2F)C(=O)O1 | i | i | 1 | -5 | i
CC(=O)Nc1c(C(=O)NCc2ccccc2)nnn1Cc1ccccc1 | . | . | 2 | -5 | .
Cc1c(C(=O)OC2CCC(C)CC2)[nH]c2c1C(=O)CCC2 (stereo not drawn) | i | i | -1 | -3 | i
O=C(Cn1cc2c(n1)CCCC2)NCCCN1CCN(Cc2ccccc2)CC1 | . | . | -6 | 0 | .
Cc1ccc(C)c(N2CCN(C(=O)C3CCCN(S(=O)(=O)c4c(C)[nH]c(=O)[nH]c4=O)C3)CC2)c1 (stereo not drawn) | . | . | 4 | 2 | .
c1ccc(CSc2nnc(-c3cccs3)n2Cc2ccco2)cc1 | i | i | -3 | 6 | i
COc1ccc(OC)c(C2C(C(=O)c3sc(C)nc3C)=C(O)C(=O)N2CCN2CCOCC2)c1 (stereo not drawn) | . | . | -7 | -6 | .
CCCCOc1ccc(C(=O)NCc2ccco2)cc1 | . | . | 0 | -9 | .
c1ccc(CNc2ccc3c(c2)ncn3C2CCCCC2)nc1 | i | i | 5 | 10 | i
O=C(Nc1ccc2c(c1)OCO2)c1cncc(Br)c1 | i | i | 6 | 3 | i
CCc1nccn1S(=O)(=O)c1ccc(C)c(C)c1 | i | i | -3 | -3 | i
Cn1c(C(=O)O)c(CC(=O)Nc2ccccc2F)c2ccccc21 | . | . | 1 | -9 | .
COc1ccc2c(C)nc(Nc3nc(C)cc(C)n3)nc2c1 | i | i | 2 | -2 | i
Cc1ccc(N2C(=O)C3C4C=CC(C4)C3C2=O)cc1C (stereo not drawn) | . | . | -1 | 1 | .
CCN(CC)C(=O)CSc1nc2ccc(NC(=O)CSc3nccn3C)cc2s1 | i | i | 7 | 8 | i
COc1ccccc1C1/C(=C(\O)c2ccc3c(c2)OCCO3)C(=O)C(=O)N1CCCN(C)C (stereo not drawn) | . | . | -2 | 5 | .
COc1cc(C(=O)NCc2nnc(SCC(=O)Nc3cc(C)cc(C)c3)o2)cc(OC)c1OC | . | . | -2 | 0 | .
O=C(O)CCCCCN1C(=O)C(=O)/C(=C(/O)c2ccccc2)C1c1ccccc1 (stereo not drawn) | . | . | -12 | -5 | .
O=C(O)C1C2C=CC(C3CC23)C1C(=O)NCCc1ccccc1 (stereo not drawn) | i | i | 11 | 8 | i
COc1ccc(-n2c3c(cc(C(=O)N4CCC(C)CC4)c2=O)C(=O)CC(C)(C)C3)cc1 | . | . | -3 | -5 | .
COC(=O)c1ccc(OCC(O)CN2CCC(C)CC2)cc1 (stereo not drawn) | . | . | -4 | 4 | .
COc1ccc(CCNC(=O)C2CCN(S(=O)(=O)c3cnc[nH]3)CC2)cc1OC | . | . | 0 | -2 | .
COc1ccc(C(=O)Cn2c(N3CCCCC3)nc3c2c(=O)n(C)c(=O)n3C)cc1OC | i | i | -1 | -5 | i
COC(=O)C(O)(CC(=O)c1ccc(OC)cc1)C(F)(F)F (stereo not drawn) | i | i | -5 | 0 | i
CCn1c(CNc2ccc(C)cc2)nnc1SCC(=O)NCc1ccccc1 | i | i | -5 | 8 | i
COC(=O)c1ccc2c(c1)N(Cc1nc(-c3cccc(Cl)c3)oc1C)C(=O)C1CCCN21 (stereo not drawn) | . | . | 0 | -7 | .
CCOC(=O)c1c(C(F)(F)C(F)(F)C(F)(F)C(F)(F)F)n[nH]c1C | i | i | -4 | -12 | i
COc1ccc(OC)c(S(=O)(=O)NCc2cn3ccsc3n2)c1 | . | . | 7 | 5 | .
Cc1cc(C)cc(NC(=O)CSc2nnc(CNC(=O)c3cccs3)o2)c1 | . | . | 6 | 0 | .
CSc1nnc2c3ccccc3n(CCc3ccccc3)c2n1 | i | i | -4 | 6 | i
C[C@H]1C[C@H]2[C@@H]3CCC4=CC(=O)C=C[C@]4(C)[C@@]3(Cl)[C@@H](O)C[C@]2(C)[C@@]1(O)C(=O)CO | i | i | -1 | -1 | i
CCN(CCNC(=O)C1CCN(S(=O)(=O)c2cccc3nsnc23)CC1)c1ccccc1 | . | . | 5 | -2 | .
O=C(NCCC1=CCCCC1)C1CCN(S(=O)(=O)c2cccs2)CC1 | . | . | -1 | -6 | .
CC(=O)C1=C(N2CCCCC2)CCC1=O | i | i | -2 | 0 | i
COc1ccc(-c2nc(CS(=O)CC(=O)N3CCc4ccccc4C3)c(C)o2)cc1 (stereo not drawn) | . | . | 6 | -6 | .
O=C(CCNS(=O)(=O)c1ccc(Br)s1)NC1CCCC1 | . | . | 1 | 3 | .
Nc1nc(N)c2nc(-c3ccccc3)c(N)nc2n1 | i | i | 0 | -4 | i
Cn1c(C(=O)NCc2cccs2)cc2oc3ccccc3c21 | . | . | 1 | 5 | .
Cc1[nH]c(=S)[nH]c(=O)c1CCOc1ccccc1 | . | . | -6 | -2 | .
CCOc1cc(N2CCOCC2)c(OCC)cc1NC(=O)COC(=O)CCc1c[nH]c2ccccc12 | i | i | -2 | 8 | i
CCOc1ccc(-n2cc(C(=O)N3CCCCCC3)c3cc(OC)c(OC)cc3c2=O)cc1 | . | . | 0 | -2 | .
Cc1ccc(N2CCn3c2nc2c3c(=O)n(CCc3ccccc3)c(=O)n2C)cc1 | . | . | -11 | -9 | .
COc1cccc(C2C(C#N)=C(N)OC3=C2C(=O)CC(c2ccco2)C3)c1OCc1ccc(F)cc1 (stereo not drawn) | . | . | -3 | -4 | .
COc1ccc2c(c1)CCc1c(C(=O)NCCCn3ccnc3)noc1-2 | . | . | 0 | 2 | .
CCOc1cc(NC(=O)c2ccco2)c(OCC)cc1NC(=O)Cc1cccc(OC)c1 | i | i | -7 | -2 | i
CCCCNC(=O)OCCNC(=O)NC | i | i | 14 | 6 | i
O=C(Nc1ccc(Br)cc1F)C1CCN(c2nnc(-n3cccc3)s2)CC1 | . | . | 5 | 0 | .

Reprinted from the entries so far (11 entries):
SMILES | VCAM-1 imaging | VCAM-1 up imaging | FPR binder | FPRL1 ligand | VCAM-1 inhibition
COc1ccc(-c2nc(CS(=O)CC(=O)N3CCc4ccccc4C3)c(C)o2)cc1 (stereo not drawn) | . | . | 6 | -6 | .
O=C(CCNS(=O)(=O)c1ccc(Br)s1)NC1CCCC1 | . | . | 1 | 3 | .
Nc1nc(N)c2nc(-c3ccccc3)c(N)nc2n1 | i | i | 0 | -4 | i
Cn1c(C(=O)NCc2cccs2)cc2oc3ccccc3c21 | . | . | 1 | 5 | .
Cc1[nH]c(=S)[nH]c(=O)c1CCOc1ccccc1 | . | . | -6 | -2 | .
CCOc1cc(N2CCOCC2)c(OCC)cc1NC(=O)COC(=O)CCc1c[nH]c2ccccc12 | i | i | -2 | 8 | i
CCOc1ccc(-n2cc(C(=O)N3CCCCCC3)c3cc(OC)c(OC)cc3c2=O)cc1 | . | . | 0 | -2 | .
Cc1ccc(N2CCn3c2nc2c3c(=O)n(CCc3ccccc3)c(=O)n2C)cc1 | . | . | -11 | -9 | .
COc1cccc(C2C(C#N)=C(N)OC3=C2C(=O)CC(c2ccco2)C3)c1OCc1ccc(F)cc1 (stereo not drawn) | . | . | -3 | -4 | .
COc1ccc2c(c1)CCc1c(C(=O)NCCCn3ccnc3)noc1-2 | . | . | 0 | 2 | .
CCOc1cc(NC(=O)c2ccco2)c(OCC)cc1NC(=O)Cc1cccc(OC)c1 | i | i | -7 | -2 | i

Next part.
SMILES | VCAM-1 imaging | VCAM-1 up imaging | FPR binder | FPRL1 ligand | VCAM-1 inhibition
CC(NS(=O)(=O)c1ccccc1)C(c1cccs1)N1CCN(C)CC1 (stereo not drawn) | i | i | -2 | 1 | i
CC(C)CCSc1nc2c(c(=O)[nH]c(=O)n2C)n1CCCc1ccccc1 | i | i | 6 | -4 | i
Cc1ccccc1Cn1c(=O)c2c(nc3n2CCN3Cc2ccco2)n(C)c1=O | . | . | 6 | 4 | .
O=C(CSc1nnc(-c2ccccc2)o1)NC1CCCCC1 | i | i | 23 | -1 | i
CCOC(=O)C1CCCN(C(=O)c2ccc(CS(=O)(=O)c3ccc(Br)cc3)o2)C1 (stereo not drawn) | i | i | -4 | -2 | i
CCOC(=O)c1nnn(-c2nonc2-c2ccccc2)c1C | . | . | -2 | 3 | .
Cc1cc(C)n2c(Br)c(CSc3nc4ccccc4o3)nc2n1 | . | . | -4 | -1 | .
N#CC1=C(N)OC2=C(CCC/C2=C/c2ccoc2)C1c1ccoc1 (stereo not drawn) | i | i | 2 | 4 | i
CCC(C)NC(=O)CSc1nc2ccc(N3CCOCC3)cc2c(=O)n1CCc1ccccc1 (stereo not drawn) | . | . | 16 | 8 | .
COc1ccc(CC(=O)Nc2c3c(nn2-c2cccc(C)c2C)CS(=O)C3)cc1OC (stereo not drawn) | . | . | 4 | -20 | .
COc1ccc(-c2nnc3ccc(SCC(=O)NCc4ccco4)nn23)cc1 | . | . | -8 | -2 | .
CC(NC(=O)c1cccnc1)C(c1cccs1)N1CCOCC1 (stereo not drawn) | . | . | 2 | 4 | .
Cc1cc(=O)n2[nH]c(-c3ccc(Cl)cc3)cc2n1 | i | i | -4 | -3 | i
C/C(=N\S(=O)(=O)c1ccc(C)cc1)N1CCN(S(=O)(=O)c2ccccc2)C1 | . | . | -1 | 3 | .
CNC(=O)CN1C(=O)CSc2nc(C)cc(C)c21 | . | . | 6 | 9 | .
CC(=O)N1c2c(cc(Br)cc2S(=O)(=O)N2CCOCC2)CC1C (stereo not drawn) | . | . | 1 | -2 | .
CSC1=NCCN1C(=O)Cc1ccc(F)cc1 | . | . | 3 | 3 | .
CCCN(CCC)CCCNC(=O)CS(=O)Cc1nc(-c2ccc(OC)c(OC)c2)oc1C (stereo not drawn) | . | . | 0 | 7 | .
CCOC(=O)CN1C(=O)C2(OCCCO2)c2ccccc21 | i | i | -1 | 2 | i
CN1CCN(CCNC(=O)Nc2ccccc2C(F)(F)F)CC1 | . | . | 4 | -8 | .
CC(=O)Nc1ccc(S(=O)(=O)NCCc2csc(C)n2)cc1 | . | . | -4 | -1 | .
CC[N+](C)(C)c1cccc(O)c1 | i | i | 6 | 14 | i
COc1ccc(-c2nc(CS(=O)CC(=O)NC3CCCc4ccccc43)c(C)o2)cc1OC (stereo not drawn) | . | . | 6 | -1 | .
COc1ccc(N2C(=O)C3CCCN3C2c2ccc(Cl)cc2)cc1 (stereo not drawn) | . | . | 0 | 4 | .
C/C(=N\O)c1ccc2c3c([nH]c2c1)CCCC3 | i | i | 8 | 2 | i
CN1C(=O)C(O)(CC(=O)c2ccc3c(c2)OCO3)c2ccccc21 (stereo not drawn) | i | i | 0 | 5 | i
COc1ccc(CCNC(=O)CSc2nnc(CNC(=O)c3ccco3)o2)cc1OC | . | . | -1 | -7 | .
CCOC(=O)c1oc2c(C)c(O)ccc2c(=O)c1-c1nncn1-c1ccccc1 | . | . | -4 | 0 | .
CCOC(=O)C1CCN(C(=O)c2sc3nc(-c4ccccc4)cn3c2C)CC1 | . | . | 1 | -7 | .
COc1cc2c(cc1OC)C(c1ccccc1)N(C(=O)c1ccco1)CC2 (stereo not drawn) | . | . | 1 | -2 | .
O=C(NC1CCCCCC1)C1C2C=CC3(CN(Cc4cccnc4)C(=O)C13)O2 (stereo not drawn) | . | . | -3 | 1 | .
O=C(OC1CCOC1=O)c1ccc(S(=O)(=O)N2CCCCCC2)cc1 (stereo not drawn) | i | i | -9 | 6 | i
Cn1c(=O)cc(SCC(=O)NCCCN2CCN(c3ccccc3F)CC2)c2ccccc21 | . | . | 6 | -4 | .
COc1ccc(C)cc1NC(=O)C1CCCN1C(=O)OCc1ccccc1 (stereo not drawn) | . | . | 0 | 3 | .
Cc1cc(NC(=O)CN2CCC(O)(c3cccc(F)c3)CC2)no1 | i | i | -4 | 5 | i
Cn1c(=O)oc2cc(S(=O)(=O)NCCC(=O)N3CCc4ccccc43)ccc21 | . | . | -5 | -10 | .
CN(CC(=O)NCc1ccco1)S(=O)(=O)c1cccc2cccnc12 | . | . | -11 | -4 | .
Cc1ccc(C)c(N(C)S(=O)(=O)c2cccc3nsnc23)c1 | . | . | 5 | 4 | .
CCOC(=O)c1cccc(NC(=O)CNS(=O)(=O)c2cccs2)c1 | i | i | -2 | 7 | i
